Autofluor counter: flagged as autofluorescent in microsphere protease counterscreen. compound autofluorescence counterscreen, microsphere flow cytometry; hits give high values. fluorescence intensity (concentration not given with the values). hit rate 3.1% among 360,000. AID 624483;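 active = at least 3 SD above the mean of all compounds, about 16000 in these data; inconclusive = too few beads counted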;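 note: 100 nL of 1 mM stock went into each well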
Sa ugtP lethal: kills S. aureus RN4220 lacking UgtP. growth inhibition, % (no concentration beside the values). S. aureus RN4220 ugtP deletion, OD600 growth, 16 h; some inactives read as strong as hits. hit rate 0.54% among 330,000;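 active = z-score under -3 and OD600 up to 0.15 on both plates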;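 note: plate controls were untreated wells for no effect and antibiotic for full effect; wells of about 80 µL received 100 nL stock; the first replicate is given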
Mtb hypoxia rep: Mtb hypoxia fluorescent reporter inhibition; M. tuberculosis hypoxia-regulated fluorescent reporter, fluorescence; fluorescence inhibition, % (test concentration not listed); hit rate 0.1% among 300,000; AID 1159583;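 active = 35 to 45% if threefold the growth effect, above 45% if 1.5-fold the growth effect; inactive = the rest, general growth blockers included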;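 note: wells of about 50 µL received 100 nL stock; 0% = vehicle wells and 100% = reference inhibitor wells; whole bacteria with a GFP reporter of the hypoxia response; strong numbers were not always called active; many hits fall short of the cut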
BJeLR viability: kills HRASV12-expressing BJeLR cells | inhibition, % (no concentration beside the values) | hit rate 0.17% among 300,000 | BJeLR (HRASV12) viability, CellTiter-Glo ATP luminescence, 48 h; reference of the scale not given here | AID 1554;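 active = replicate mean above 50%; inconclusive = above 50% but judged a plate artefact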;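 note: 50 nL library stock added to about 25 µL; numbers are from one replicate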
RN4220 kill: S. aureus RN4220 growth inhibition; hit rate 0.33% among 330,000; AID 1259311; inhibition, % (concentration not given with the values); OD600, 16 h;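 active = z-score of -3 or lower and OD600 up to 0.18 on both plates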;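 note: plate controls were untreated cells for no effect and reference antibiotic for full effect; stock transfer was 100 nL into about 80 µL; one replicate is shown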
PrP 5UTR inh: inhibition of PrP 5' UTR reporter expression | AID 488862 | hit rate 0.35% among 340,000 | inhibition, % (test concentration not listed) | cell-based PrP 5' UTR mRNA reporter, plate reader;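 active = every replicate at 50% or more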;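 note: 0 = median of the neutral control wells; tested in H4 reporter cells; numbers are from one replicate; inactives centre near -14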
Mtb hypoxia rep growth: recorded beside Mtb hypoxia rep, whose call it bears; growth inhibition, %; measured here: M. tuberculosis growth (absorbance);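 0% = vehicle and 100% = reference antibiotic; read after six days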
* hit, by the source's call; ? = inconclusive; . = not tested or not shown. Rows are unselected. About 4% of those tested had a hit in this group.

SMILES | Autofluor counter | Sa ugtP lethal | Mtb hypoxia rep | Mtb hypoxia rep growth | BJeLR viability | RN4220 kill | PrP 5UTR inh
O=C(Oc1ccc(-c2nnco2)cc1)N1CCCCC1 | 3471 | 2 | . | . | 11 | -0.2 | -12
CCCN(C(=O)Cc1csc(-c2ccccc2)n1)C1CCS(=O)(=O)C1 (configuration not stated) | 7856 | -2 | 7 | 2 | . | 1.7 | -8
Cc1cc(NC(=O)CCN2CCN(Cc3ccccc3)CC2)ccc1Br | 4059 | -11 | 10 | 1 | -4 | -1.2 | 5
O=C(N=Nc1c(O)[nH]c2ccccc12)c1cccc(S(=O)(=O)N2CCCCC2)c1 | 2465 | -1 | 5 | 0 | -1 | 1.8 | -12
CC(C)(C)OC(=O)N/N=C/c1ccc(C(=O)O)cc1 | 2643 | . | . | . | 17 | . | -12
COc1ccc(C2/C(=C(/O)c3ccccc3)C(=O)C(=O)N2CO)cc1 (configuration not stated) | 3638 | -2 | . | . | 1 | 3.4 | -14
CCOc1ccc(S(=O)(=O)N2CCC(C(=O)OC(C)C(=O)N3CCOCC3)CC2)cc1 (configuration not stated) | 6089 | -6 | -12 | 10 | -7 | -0.7 | -10
CC(Cc1cccnc1)NC(=O)c1cc(COc2c(F)cccc2F)on1 (configuration not stated) | 5522 | -1 | 5 | -4 | 0 | 0.7 | 4
CC1CN(S(=O)(=O)c2cccc(C(=O)N3CCC(C(N)=O)CC3)c2)CC(C)O1 (configuration not stated) | 3434 | 5 | 6 | 7 | . | 0.6 | -8
COc1cccc(N2CCN(CC(=O)NC(=O)NC3CCCCC3)CC2)c1 | 5928 | 5 | 1 | 11 | . | 4.1 | -24
CC(=O)Nc1ccc(Oc2ccc3c(c2)C(=O)NC3=O)cc1 | 3428 | 4 | 6 | 0 | 9 | 7.0 | -20
O=C(NC1CCCCC1)c1cccc(Cn2cc(Cl)cn2)c1 | 9243 | -9 | 20 | 14 | -1 | 3.7 | -42
CCN(C(=O)CSc1n[nH]c(-c2cccs2)n1)C1CCS(=O)(=O)C1 (configuration not stated) | ? | 2 | -2 | 9 | 13 | 3.7 | 5
COC(=O)CC(c1ccccc1F)N1Cc2ccccc2C1=O (configuration not stated) | 3091 | 3 | 0 | -8 | 3 | 4.3 | -17
O=S(=O)(c1ccsc1)N1CC=C(c2ccccc2)CC1 | 4366 | 13 | -2 | -2 | 9 | 8.7 | 7
CCOC(=O)Cc1csc(NC(=O)C2C3C=CC(C3)C2C(=O)O)n1 (configuration not stated) | 3313 | -2 | . | . | -5 | 0.5 | -4
COc1ccc(N/C=C/C(=O)c2ccc(Oc3ncccn3)cc2)cc1 | 3295 | . | . | . | 7 | . | -35
CCOc1ccc(-c2nc(CSCC(=O)NCc3ccco3)c(C)o2)cc1 | 3016 | 1 | 7 | 10 | -2 | 1.4 | -4
CCn1c(C)nc2cc(C(=O)NNC(=S)Nc3ccc(C)cc3)ccc21 | 4001 | 2 | 15 | 10 | 4 | 1.9 | -21
CCC(C)NC(=O)CSc1nc2ccccc2c(=O)n1Cc1ccc(OC)cc1 (configuration not stated) | 6317 | -8 | 5 | 9 | -2 | 0.3 | -26
Cc1ccc(C2CC(C(F)(F)F)n3nc(C(=O)NCCN4CCOCC4)cc3N2)cc1 (configuration not stated) | 4101 | -1 | -11 | 4 | 8 | 0.8 | -10
CCOCCCNC(=O)CCCOc1ccccc1 | 9408 | -4 | 3 | 6 | -5 | 7.6 | -23
Cc1ccc(NC(=O)c2ccc(OC(=O)COc3ccc(Cl)cc3C)cc2)cc1 | 2192 | -4 | 19 | 8 | -15 | -0.3 | -41
NC(=O)C(=NOC(=O)c1ccco1)c1nc(-c2ccc(Br)cc2)cs1 | . | 93* | 3 | -3 | . | -2.9 | .
O=C(c1ccc(F)cc1)N1C2CCC1CC(O)(c1ccc(F)cc1)C2 (configuration not stated) | 4426 | 2 | 3 | 9 | 0 | 2.6 | -13
COc1ccccc1C(=O)NCCC(=O)NNC(=O)c1ccccc1O | 5938 | 0 | 8 | 0 | 7 | 2.3 | 7
C/C(=N\NC(=O)c1cccc(C)c1)c1cccc(NC(=O)c2ccco2)c1 | 4688 | . | . | . | 6 | . | -31
CC1CC(C)CN(CCOCCSc2ccc(Cl)cc2)C1 (configuration not stated) | 4246 | -1 | -1 | 10 | 7 | -3.1 | -7
CCOc1ccc(-n2nc3c(=O)[nH]nc(C)c3c2C)cc1 | 2738 | 1 | 5 | 2 | -2 | 2.1 | -35
Cc1cnnn1-c1cccc([N+](=O)[O-])c1 | 2272 | 11 | 3 | 3 | -3 | 4.4 | -18
O=S(=O)(Nc1ccc(N2CCOCC2)cc1)c1ccc2ccccc2c1 | 1920 | 17 | 2 | -1 | 6 | 2.2 | -24
CCN(CC)c1ccc(NC(=O)CN2CCN(CC(=O)Nc3ccccc3F)CC2)cc1 | 2380 | -7 | . | . | 0 | 0.6 | -9
O=C(NCc1cccnc1)c1cc(C(=O)C2CC2)c[nH]1 | 3227 | 9 | 0 | -2 | 6 | 7.0 | -1
CCCCN(C(=O)Cn1ncc(Cl)c(Cl)c1=O)c1c(N)n(CC(C)C)c(=O)[nH]c1=O | 4485 | 9 | 12 | 8 | -6 | 4.4 | -8
COc1cccc(C2CC(c3ccc(C)cc3)=NN2C(=O)c2ccccc2F)c1OC (configuration not stated) | 2999 | 10 | -9 | 8 | 0 | -0.8 | -22
Cc1ccc(C)c(OCCC(=O)OCC(=O)NC(=O)NC2CCCC2)c1 | 6020 | 1 | -5 | -4 | -3 | 2.8 | 1
O=C(Nc1ccc2c(c1)OCO2)c1ccncc1 | 3477 | 5 | . | . | 3 | 3.0 | -23
c1ccc(C2=NNC(=NC3CC3)SC2)cc1 | 6070 | 12 | 9 | 7 | 47 | 1.9 | 32
CC(O)CNc1nc(N)[nH]c(=O)c1N=Nc1ccccc1 (configuration not stated) | 3406 | 0 | 13 | 10 | . | 3.6 | 0
CCOc1ccc2nc(NC(=O)CSc3ccc(Cl)cc3)sc2c1 | 4454 | -9 | 4 | 2 | 3 | 4.3 | -18
C=CC[C@@H]1Cc2c(Br)ccc(Br)c2[C@@H](CC=C)N1 | 2507 | 40 | 16 | 7 | 12 | -6.7 | -6
COC(=O)C(Cc1c[nH]c2ccccc12)NC(=O)C(=O)c1c[nH]c2ccccc12 (configuration not stated) | 5238 | -1 | 3 | 0 | -1 | -0.6 | -24
O=C(c1cc2ccccc2o1)N1CCN(Cc2ccc3c(c2)OCO3)CC1 | 3292 | 19 | . | . | -6 | 6.3 | -5
Cc1ccc2c(c1)C(c1ccc(O)cc1)(c1ccc(O)cc1)C(=O)N2C | 3530 | 6 | 1 | 0 | 3 | 5.1 | -18
CC(C)(C)NC(=O)C1CCCN(S(=O)(=O)c2cccc3cccnc23)C1 (configuration not stated) | 5895 | 3 | . | . | -3 | -1.4 | -17
CCOC(=O)C1=C(C)N=c2s/c(=C/c3ccc(OCC(=O)O)cc3)c(=O)n2C1c1ccc(F)cc1 (configuration not stated) | 4083 | . | . | . | 2 | . | -10
NC(=O)c1cccn1-c1ncc(C(F)(F)F)cc1Cl | 2067 | 2 | -1 | 10 | -9 | -2.9 | -16
COC(=O)c1cccc(N/C=C(\[N+](=O)[O-])S(=O)(=O)c2ccccc2)c1 | 3613 | 17 | 10 | 8 | 11 | 0.6 | -29
O=C(COC(=O)Cc1n[nH]c(=O)c2ccccc12)NNC(=O)c1ccc(Cl)cc1 | 3487 | 1 | 6 | 3 | . | 6.3 | -16
CCn1ncc(/C=C/C(=O)C2CC2)c1C | 2284 | 4 | 5 | 5 | -3 | 9.1 | -13
Cc1cc(=O)oc2cc(NC(=O)c3ccccc3OC(F)F)ccc12 | 3831 | 4 | 10 | -5 | 0 | 4.8 | -55
O=C(NN=Cc1ccccn1)c1cccc(S(=O)(=O)N2CCCC2)c1 | . | -4 | -8 | -10 | . | -3.7 | .
CC(=O)S[C@@H]1CC2=CC(=O)CC[C@]2(C)[C@H]2CC[C@@]3(C)[C@@H](CC[C@@]34CCC(=O)O4)[C@H]12 | 4262 | . | . | . | 2 | . | 6
COC(=O)C1C(=O)c2c(n[nH]c2C)CC1(C)C (configuration not stated) | 6011 | 3 | 1 | 6 | 2 | 3.9 | -17
C/C(=N\c1nc2ccccc2n1C)c1cc(Cl)ccc1O | 3251 | . | . | . | 2 | . | -8
COc1cc(C=NNC(=O)c2ccoc2C)cc(OC)c1O | . | 1 | 19 | 1 | . | 3.4 | .
O=C1CC2CS(=O)(=O)CC2N1c1ccc(Cl)cc1Cl (configuration not stated) | 3716 | 3 | . | . | -1 | 2.3 | -39
Cc1cccc(CSc2nnc(-c3cccs3)n2Cc2ccco2)c1 | 9684 | -4 | 5 | 3 | -4 | 5.1 | -9
Cc1ccc(CSCCNS(=O)(=O)c2ccc([N+](=O)[O-])cc2)cc1 | 5829 | 5 | 4 | 2 | 1 | 0.2 | -13
O=C(CNC(=O)c1cc(S(=O)(=O)N2CCCCC2)ccc1N1CCOCC1)Nc1ccc(F)c(F)c1 | 4510 | 1 | 8 | 0 | 9 | 4.4 | -16

(list continues)
SMILES | Autofluor counter | Sa ugtP lethal | Mtb hypoxia rep | Mtb hypoxia rep growth | BJeLR viability | RN4220 kill | PrP 5UTR inh
Cc1ccc(S(=O)(=O)N2CCOCC2)cc1NC(=O)CSc1nnc(COc2ccccc2F)n1N | 3855 | 3 | 5 | -3 | . | 4.2 | -22
CC(C)[C@H](NC(=O)[C@@H]1Cc2ccccc2CN1)C(=O)NC1CCCCC1 | 5312 | -3 | 3 | 8 | 0 | -0.3 | -15
Cc1ccc(CN(c2ccc(C(=O)N3CCCC3)cc2)S(C)(=O)=O)cc1 | 2899 | -16 | -1 | 2 | 10 | -1.8 | -7
CC1(C)CC(=O)C2=C(C1)OC1=C(C(=O)CC(C)(C)C1)C2c1ccc(O)cc1O | 8055 | -8 | 3 | 4 | 26 | 5.8 | -8
O=C(CCNC(=O)c1ccc(Br)cc1)Nc1cc(Cl)ccc1-n1cncn1 | 6181 | 3 | -2 | 6 | -9 | 0.9 | -16
COc1ccc(NC(=O)CSc2nnc(-c3ccoc3C)n2CCc2ccccc2)cc1 | 2963 | 2 | . | . | -3 | -0.8 | -15
Cc1ccccc1-n1c(SCC(=O)N/N=C/C=C/c2ccccc2[N+](=O)[O-])nc2ccccc2c1=O | 2381 | . | . | . | -5 | . | -11
Cc1ccc(NC(=O)CSCC(=O)Nc2ccc(N3CCOCC3)c(Cl)c2)cc1 | 2727 | -13 | 9 | 16 | 13 | -4.7 | -17
Cc1ccc2nc(SCC(=O)Nc3cccc([N+](=O)[O-])c3)[nH]c2c1 | 14620 | -18 | 9 | 6 | -4 | 1.1 | -25
COc1ccc(-c2nc3ccccn3c2C=O)cc1 | 9413 | 7 | 12 | 14 | 3 | 7.9 | -99
CCCNC(=O)/C(C#N)=C1\N=C(NC(=O)c2cccs2)c2ccccc21 | 6065 | -6 | -9 | -5 | -6 | -3.1 | -12
CC(C)(C)NS(=O)(=O)c1ccc(-c2csnn2)s1 | 3956 | 0 | . | . | 5 | 5.0 | -9
O=C1CCCC(O)=C1C=Nc1cccc(C(F)(F)F)c1 | 4316 | 8 | 8 | 9 | -3 | 6.7 | -23
CCOC(=O)N1CCC(NC(=O)C2CCCN(Cc3nc(-c4cccc(Cl)c4)oc3C)C2)CC1 (configuration not stated) | 5825 | -9 | 2 | 1 | 15 | -9.9 | 4
O=C1NC(=O)C2(Cc3ccccc3N3CCCC32)C(=O)N1Cc1ccccc1 (configuration not stated) | 19390* | -1 | 7 | 10 | 3 | 5.4 | -31
